gsp antagonist: qHTS for Antagonists of gsp, the Etiologic Mutation Responsible for Fibrous Dysplasia/McCune-Albright Syndrome: qHTS; gsp-mutant cells, cAMP HTRF, 30 min; control for the full effect not named in the record; AID 624288, 2012; 340,000 compounds, 0.4% hits; Potency, µM (series often up to 76.9 µM), for the others: at the top dose activity change, negative = inhibition, actives largely listed as inhibitors; active = falling curve of any shape with a large fitted effect; inconclusive = falling curve, mostly with a smaller effect; inactive = flat or rising curve; cell line not stated here;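 also: intracellular cAMP measured with PDE inhibitor Ro 20-1724 present during compound exposure; potency is read from the fitted curve at half-maximal effect; % is scaled to controls: 0 for no effect and ±100 for the full control effect; nearly all actives have a fitted effect of over 65% in size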
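Cells, 2000/well, grown 16–24 h in DMEM 10% FBS with 0.5 mg/ml G418, then compounds plus […] (300 uM addition stock), 30 min at 37C. cAMP read by HTRF (cAMP-d2 and anti-cAMP antibody-K in lysis buffer) after 30 min RT.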
PINK1 modulator: A Quantitative High throughput Screen to Identify Chemical Modulators of PINK1 Expression; PINK1 immunofluorescence, high-content cytometry, 24 h; Potency, µM (doses to about 76.6 µM), without a hit: at the highest dose activation (PINK1 increase), actives largely listed as activators; 410,000 compounds, 0.2% hits; AID 624263, 2012; active = well fitted activation curve with a large enough effect; inconclusive = small, poorly fitted or top-dose-only effect; inactive = flat fitted curve, though single readings scatter; cell line not stated here;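 also: potency is read from the fitted curve at half-maximal effect; % of control where 0% means no effect; nearly all actives have a fitted effect of over 65% in size; a mitochondrial uncoupler was the plate control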
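Stable cell line, 250 cells/well, 12 h attachment; compounds pinned at 5 concentrations, 24 h; CCCP control. Fixed with nuclear dye, primary antibodies 12 h at 10 degrees C, secondary plus cell stain; laser-scanning cytometer read.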
gsp ag: qHTS for Agonist of gsp, the Etiologic Mutation Responsible for Fibrous Dysplasia/McCune-Albright Syndrome: qHTS | gsp mutant cells, cAMP HTRF, 30 min; control for the full effect not named in the record | Potency, µM (top dose mostly 76.9 µM), without a hit: at the top dose activation (cAMP increase), actives largely listed as activators | 340,000 compounds, 0.13% hits | AID 624287, 2012; active = well fitted activation curve with a large enough effect; inconclusive = small, poorly fitted or top-dose-only effect, or another doubt; inactive = no such curve, though single readings can be large or run the other way; cell line not stated here;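 also: phosphodiesterase inhibitor Ro 20-1724 added with compounds to block cAMP breakdown; potency is read from the fitted curve at half-maximal effect; nearly all actives have a fitted effect of over 60% in size; about a fifth of the inactives were tested at one dose only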
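Cells in DMEM/10% FBS with G418 were pretreated with compounds in DMSO plus […] (300 uM stock) for 30 min at 37C. cAMP was measured by HTRF (cAMP-d2 plus anti-cAMP antibody-K) after 30 min at room temperature.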
ClpP mod: qHTS Assay for Activators of ClpP | ATP-dependent Clp protease proteolytic subunit (Bacillus subtilis (strain 168)), P80244 | purified B. subtilis ClpP, FRET peptide cleavage, 20 min | Potency, µM (doses to about 57.5 µM), without a hit: at the top dose activity change, negative = active | 340,000 compounds, 1.9% hits | AID 651965, 2013; active = well fitted falling curve with a large enough effect; inconclusive = small, poorly fitted or top-dose-only effect; inactive = no such curve, though single readings can be large or run the other way; also: potency is read from the fitted curve at half-maximal effect; the source files actives as falling curves though it sought activators and does not explain the sign; nearly all actives have a fitted effect of over 65% in size; many hits overshoot -100%
Target sequence (P80244 whole entry, looked up): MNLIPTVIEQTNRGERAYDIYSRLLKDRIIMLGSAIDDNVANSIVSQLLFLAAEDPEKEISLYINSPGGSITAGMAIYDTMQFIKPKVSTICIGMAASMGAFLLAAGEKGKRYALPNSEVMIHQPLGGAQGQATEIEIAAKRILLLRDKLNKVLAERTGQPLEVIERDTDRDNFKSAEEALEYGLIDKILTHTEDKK
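FRET quenching reversal measured ClpP activation: 10 microg/mL B. subtilis ClpP at pH 8 with the FRET-FV decapeptide, read at 430 nm after 320 nm excitation. The 20-min minus 0-min signal was scaled between DMSO/no-enzyme wells and ADEP (5.8 microM final).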
Menin-MLL FL inh: qHTS Assay for Inhibitors Targeting the Menin-MLL Interaction in MLL Related Leukemias: Competition With Fluorescein Labeled MLL-derived Peptide; Fluorescence polarization, fluorescein-MLL peptide displacement from menin; FP activity change, % at 61.4 µM; 290,000 tested, under 10 active; inconclusive = falling polarisation curve, or a change in total fluorescence; inactive = total fluorescence flat and polarisation flat or rising; no compound was filed as active; the % refers to the polarisation; negative = inhibition;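 also: % of control where 0% means no effect; inhibitors lower the polarisation; unlabelled MLL peptide was the positive control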
D2 agonist: Beta-Arrestin HTS for Positive Allosteric Modulators of the Human D2 Dopamine Receptor: Agonists. DiscoveRx PathHunter D2 beta-arrestin, luminescence, 90 min; 100% = 57 uM dopamine signal. activation, % (test concentration not listed). 360,000 compounds, 0.084% hits. AID 624465, 2012; in the data active = activation above about 40%; inconclusive = about 15% to 40%; inactive = below about 15%; also: compound concentration not given in the record; the text of the record calls up to 30% inactive
Target sequence (P14416 whole entry, looked up): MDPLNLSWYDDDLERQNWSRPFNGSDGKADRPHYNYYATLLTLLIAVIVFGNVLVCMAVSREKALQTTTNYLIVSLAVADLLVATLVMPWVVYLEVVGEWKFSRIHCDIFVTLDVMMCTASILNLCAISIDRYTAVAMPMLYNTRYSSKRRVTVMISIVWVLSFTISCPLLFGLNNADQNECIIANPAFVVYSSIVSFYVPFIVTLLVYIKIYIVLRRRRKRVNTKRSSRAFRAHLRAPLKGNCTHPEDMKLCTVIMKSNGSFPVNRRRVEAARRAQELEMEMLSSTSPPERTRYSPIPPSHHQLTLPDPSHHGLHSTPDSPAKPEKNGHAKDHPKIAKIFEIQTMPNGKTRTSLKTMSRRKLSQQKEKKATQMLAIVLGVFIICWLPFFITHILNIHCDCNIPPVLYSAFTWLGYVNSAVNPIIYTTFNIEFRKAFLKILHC
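DiscoveRx PathHunter D2 beta-arrestin cells (2,100/well) attached overnight, then compound-stimulated 90 min at 37 C in HBSS/10 mM HEPES/0.1% Tween-20 buffer; beta-galactosidase complementation read by luminescence after 1 h at ambient temperature. Dopamine 57 uM final (EC100) as control.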
Sfp PPTase inh: qHTS Assay for Inhibitors of Bacillus subtilis Sfp phosphopantetheinyl transferase (PPTase) | Biochemical Sfp PPTase activity, qHTS | Potency, µM, without a hit: max response, negative = inhibition, actives largely listed as inhibitors | 310,000 compounds, 3.5% hits | AID 1490, 2009; active = well fitted inhibition curve with a large enough effect; inconclusive = small, poorly fitted or top-dose-only effect, or another doubt; inactive = no such curve, though single readings can be large or run the other way;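 also: the enzyme is Sfp with the accession as filed and its product quenches rhodamine fluorescence; potency is read from the fitted curve at half-maximal effect; 0% = enzyme reaction without inhibitor and -100% = no enzyme wells; top concentration of the series not given in the record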
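Fluorescence-quenching assay: 15 nM Sfp-PPTase preincubated 15 min at room temperature with compound, then 5 uM rhodamine-CoA and 12.5 uM BHQ-2-labelled YbbR peptide added. Fluorescence (ex 525/em 598 nm) read at start and after 30 min; difference gives rate.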
* marks the source's active call; other numbers are inactive results; ? = inconclusive; . = not tested or not shown; & = joins results of further samples; [ ] = another dose, or the depositor's remark.

mol	gsp antagonist	PINK1 modulator	gsp ag	ClpP mod	Menin-MLL FL inh	D2 agonist	Sfp PPTase inh
Cc1cccc(-n2c(=O)c(C#N)cc3c(=O)n4ccccc4nc32)c1	21%	-1.4%	?	38%	-0.4	-2.3	-14%
CCc1ccc(C(=O)COC(=O)C2=NN(c3ccccc3)C(=O)CC2)cc1	10%	3.3%	-2%	-0.2%	.	2.1	.
CCOc1ccc(S(=O)(=O)N2CCC(C(=O)Nc3cc(S(C)(=O)=O)ccc3Cl)CC2)cc1	-2%	1.5%	-20%	1.5%	.	0.7	.
CCOc1cc(N2CCOCC2)c(OCC)cc1NC(=O)c1ccccc1C	-4%	1.0%	-7%[15.4 µM]	.	-3.1	1.3	4%
Cc1nn(C)c(C)c1S(=O)(=O)NCc1cccs1	9%	-2.5%	-1%	0.5%	-0.7	-0.6	16%
COc1ccc2cc3cc(C(=O)NCC4CCCO4)oc3nc2c1 (centres undefined)	9%	0.9%	20%	43%	0.5	-1.0	15%
COc1ccc(NC(=O)N2CC[C@@]3(CCCN(C(=O)c4ccc(OC)cc4)C3)C2)cc1	.	0.1%	.	.	-1.9	.	17%
CCOC(=O)c1c(C)[nH]c(C(=O)COC(=O)CCC2CCCC2)c1C	25%	-11%[38.3 µM]	-26%	-4.0%	0.1	-0.7	13%
COc1ccc(CNC(=O)C(=O)NCC2CCCN2S(=O)(=O)c2cccs2)cc1 (centres undefined)	2%	7.7%	21%	1.9%	.	-4.4	.
COc1ccc(S(=O)(=O)N2CCN(Cc3cccc(Cl)c3)CC2)cc1	-5%	-3.7%	-11%	-1.6%	3.4	-1.7	-12%
CC(NS(=O)(=O)c1cccc(Cl)c1)C(=O)N(C)C1CCN(C)CC1 (centres undefined)	16%	0.7%	5%	-1.4%	-1.3	2.8	9%
Cc1cc(C)n(-c2nc3c(c(=O)[nH]c(=O)n3C)n2CC(O)COc2ccccc2C)n1 (centres undefined)	5%	-2.9%	34%	-24%	-2.0	0.1	11%
O=C1c2oc3ccc(F)cc3c(=O)c2C(c2ccc(F)cc2)N1CCCN1CCOCC1 (centres undefined)	9%	0.9%	-16%	-6.2%	.	-3.8	.
CCN(CC(=O)Nc1c(F)cccc1F)C(=O)c1cc(C)nc2ccccc12	7%	-0.5%	-12%	-0.8%	.	4.6	.
Cc1ccc(S(=O)(=O)N2CCC(=O)N(CCOCc3ccccc3C)CC2)cc1	-4%	0.2%	-9%	0.4%	2.6	-1.1	-5%
CCOC(=O)c1cccc(C2=CC(=O)C[C@H](c3ccc(Cl)cc3)C2)c1	-20%	3.4%	.	-1.1%	.	0.1	.
NCCOc1cnn(-c2ccccc2Cl)c(=O)c1Cl	5%	-1.7%	-47%[inhibitor]	-3.3%	7.1	1.5	12%
COc1ccccc1C1(CC(=O)N2CCOCC2)CCOC(C(C)C)C1 (centres undefined)	10%	0.6%	-33%[inhibitor]	1.0%	0.1	-4.1	-15%
Brc1cccc(Cn2c(-c3cncs3)nc3ccccc32)c1	-26%	6.6%[38.3 µM]	?	-11%	1.5	-0.6	-25%
COc1ccc(C2CC(c3ccccc3O)=NN2c2ccccc2)cc1 (centres undefined)	0%	0.2%	14%[15.4 µM]	.	.	2.1	.
CC(C)c1c(C(=O)N/N=C/c2ccco2)nnn1-c1nonc1N	-5%	-0.6%	5%	0.0%	.	0.8	8%
O=C(CCCN=C1NS(=O)(=O)c2ccccc21)OCc1cc([N+](=O)[O-])cc2c1OCOC2	-18%	1.5%	10%	0.4%	1.3	5.0	9%
COc1c(N2CCN(C(=S)NCc3ccccc3)C(C)C2)c(F)cc2c(=O)c(C(=O)O)cn(C3CC3)c12 (centres undefined)	?	?	10%	?	3.3	-0.8	-13%
COc1ccccc1N(CC(=O)NC(C)(C)C)C(=O)Cn1nnc(-c2ccc(C)o2)n1	-12%	-2.8%[38.3 µM]	5%	1.3%	1.8	0.8	?
CC/C(=N\Nc1ccnc2cc(Cl)ccc12)c1ccc(O)cc1	-22%	3.0%	-2%	.	7.7	-5.1	4%
CC1CN(c2ccc(S(=O)(=O)N3CCOCC3)cn2)CC(C)O1 (centres undefined)	-4%	1.0%	?	-16%	2.7	-0.3	9%
CCOc1cc(/C=N/NC(=O)c2ccc(N(C)S(=O)(=O)c3ccccc3)cc2)ccc1OC	-6%	2.1%	-10%[15.4 µM]	.	-6.5	-0.6	5%
CC/C(=N\NC(=O)CSCc1ccc(Cl)cc1)c1ccc2c(c1)OCCO2	-21%	4.6%	10%	-2.0%	0.4	0.7	-24%
NC(=O)CCC1NC(=S)N(Cc2ccccc2)C1=O (centres undefined)	3%	0.4%	-3%[15.4 µM]	-2.2%	5.1	-9.0	-3%
CCC(=O)N1CCc2cc(Br)cc(S(=O)(=O)N3CCC(C(=O)NC(C)(C)C)CC3)c21	?	-2.0%&0.5%	22%	-0.4%	5.3	-3.8	15%
COc1ccc(CN(C)C(=O)c2cc(-c3ccc(C)cc3C)nc3ccccc23)c(OC)c1OC	-29%	-1.7%	1%	.	-3.1	3.2	-8%
OC(C#CCCN1CCCCC1)(c1ccccc1)c1ccccc1	9%	-0.1%	-3%[15.4 µM]	.	3.1	0.5	-2%
Cc1c2cn[nH]c(=O)c2c(C)n1-c1ccccc1	10%	1.2%	20%	-15%	5.8	3.5	2%
COC(=O)c1ccc(N2CCC(C)CC2)c(N)c1	3%	4.0%[38.3 µM]	15%	?	2.5	-1.1	32µM*
COc1cc(C(=S)N2CCC(Cc3ccccc3)CC2)ccc1OCC(N)=O	-3%	1.2%	-10%	.	3.0	-1.4	5%
c1ccc(-c2cc(-c3ccncc3)nc3ccc4ccccc4c23)cc1	-10%	-1.7%	5%[15.4 µM]	22µM*	2.2	0.9	56µM*
CCOC(=O)c1c(N)sc2c1CCN(Cc1ccccc1)C2	.	-0.3%	.	4.6%	?	.	10µM*
Cc1cccc2cc(CN(Cc3cccs3)Cc3nnnn3Cc3ccccc3)c(=O)[nH]c12	-4%	.	-72%	?	2.4	-0.5	0%
CSCC[C@H](NC(=O)C1CCC(CNC(=O)[C@@H]2CCCN2C(=O)OC(C)(C)C)CC1)C(=O)O (some centres undefined)	1%	-0.9%	?	-3.2%	-11	-2.2	10%
COc1ccc(S(=O)(=O)Nc2ccc3c(c2)CC(=O)N([C@H](C)CO)C[C@H](C)[C@H](CN(C)C(=O)Nc2ccc4c(c2)OCO4)O3)cc1	1%	2.1%	?	-1.0%	.	3.3	.
Cc1ccc(Cl)cc1N1CCN(C(=O)Cn2ccc3ccccc3c2=O)CC1	25µM*	2.1%	-6%	-4.6%	4.4	-5.1	10%
O=S(=O)(NC(=S)c1ccccc1)c1ccccc1	-19%	-0.6%	19%	.	.	-5.3	.
O=S(=O)(NCC(c1cccnc1)N1CCOCC1)c1ccccc1 (centres undefined)	-1%	-0.8%	3%	-0.7%	1.8	6.7	12%
CC(C)(C)c1cc(=O)n(-c2ccccc2)[nH]1	13%	1.9%	39%	1.8%	1.9	6.2	?
CN1C2CCC1/C(=C/c1cccn1C)C(=O)/C2=C\c1cccn1C	10%	0.3%	-10%[15.4 µM]	7.9%	.	-4.9	?
COc1ccc(N(CC(=O)Nc2cccc3ccccc23)S(C)(=O)=O)cc1	3%	-1.1%	-3%	-1.6%	-4.3	-4.1	3%
COc1cccc(C(=O)N(C)C(C)c2nc3ccccc3s2)c1 (centres undefined)	-2%	-1.9%	-7%	.	-1.2	-1.8	8%
O=C(NCc1ccco1)[C@@H]1CSC2c3ccccc3C(=O)N21 (some centres undefined)	4%[15.4 µM]	-0.3%	26%	1.6%	3.9	-3.7	35µM*
O=C(CN1C(=O)C2C3C=CC(C3)C2C1=O)Nc1ccc(S(=O)(=O)Nc2nccs2)cc1 (centres undefined)	11%	2.6%	-19%	-1.8%	13	-3.7	2%
COc1cc(C(=O)OCC(=O)N2c3ccccc3NC(=O)C2(C)C)ccc1OCC(C)C	-28%	-2.7%	-37%	-3.2%	.	0.2	.

Next part:
mol	gsp antagonist	PINK1 modulator	gsp ag	ClpP mod	Menin-MLL FL inh	D2 agonist	Sfp PPTase inh
Cc1ccc(NC(=O)CN(C)Cc2ccc(Cl)cc2)cc1	3%	-0.9%	7%	-0.5%	-2.7	-0.7	6%
CCOc1ncccc1C(=O)OCC(=O)Nc1cccc(S(N)(=O)=O)c1	3%	-0.3%	9%	.	-8.5	-0.5	3%
COc1ccccc1C(=O)N/C(=C\c1ccccc1)C(=O)NC(Cc1ccccc1)C(=O)O (centres undefined)	1%	-0.4%	22%	.	-1.6	0.7	18%
O=C(COC(=O)CSc1ccc2ccccc2c1Br)NC1CC1	-3%	2.4%	?	.	2.1	-0.6	16%
Cc1sc2ncnc(OCC(=O)c3ccc(S(=O)(=O)N4CCCC4)cc3)c2c1C	-10%	-0.4%[38.3 µM]	?	-2.2%	1.2	-0.6	0%
O=C1c2ccccc2C(c2nc3ccccc3[nH]2)N1Cc1ccco1 (centres undefined)	.	0.3%	.	-9.1%	.	-3.5	.

Screening results: PubChem, National Center for Advancing Translational Sciences (NCATS)
